PK Bst = Pyruvate Kinase | partly purified Bacillus stearothermophilus pyruvate kinase, luminescence ATP production; ribose 5-phosphate activator present at AC10 | Potency, µM | 51,000 compounds, 1.2% hits | AID 361, 2006; in the data active means potency below about 11 µM; inconclusive means mostly about 12 µM to 25 µM; inactive means weaker than that;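 the screen sought inhibitors and activators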;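 further: potency means the concentration at half of the fitted maximal effect; scaled between full activation by ribose 5 phosphate and full inhibition by luteolin; about four in five hits inhibit and the cells do not say which; series up to 57 µM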
YjeE inh = qHTS Assay for Inhibitors of YjeE; tRNA threonylcarbamoyladenosine biosynthesis protein TsaE (Escherichia coli (strain …; purified YjeE, fluorescence polarisation of a bound ADP probe; Potency, µM; 71,000 compounds, 0.05% hits; AID 605, 2007; active = well fitted falling curve; inconclusive = weaker or top-dose-only fall, or a rising curve; inactive = flat or poorly fitted curve;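 further: top concentration of the series not given in the record; excess ADP was the control for the full effect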
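Purified YjeE (10 uM) with BODIPY Texas Red-labeled ADP probe (2 uM); compounds pin-transferred, 15 min at room temperature. Binding inhibition read as decreased fluorescence polarization; ADP titration as control.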
Active calls of the source: *.

`Cc1c(C(=O)N2CCN(c3ccc(F)cc3)CC2)sc2nc(-c3ccccc3)cn12` gave PK Bst >57 and YjeE inh inactive.
Screening Cc1ccccc1NC(=O)c1ccc(S(=O)(=O)N(C)C)cc1 returned YjeE inh inactive.
Screening Cc1cc(OCC(=O)NCCO)cc(C)c1Cl returned YjeE inh inactive.
`CCOc1ccccc1NC(=O)CC1NCCNC1=O` (centres undefined) gave PK Bst >57 and YjeE inh inactive.
Screening O=C(Cn1cnc2ccccc2c1=O)N1CCN(Cc2ccccc2)CC1 returned PK Bst >57 and YjeE inh inactive.
For c1ccc2c(c1)nc1n2CCN1CCNC1CCCCC1 the results were YjeE inh inactive.
For Nc1nc(SCC(=O)c2ccc(Oc3ccccc3)cc2)n[nH]1 the results were PK Bst >57 and YjeE inh inactive.
Cc1[nH]c(N)nc(=S)c1CCC(=O)O was read as YjeE inh inactive.
For C=C1CCO[C@@]2([C@H](O)[C@@](C)(O)CO)NC(=O)[C@]1(O)NC2=O the results were YjeE inh inactive.
`O=C(CN1CCN(c2ccc(F)cc2)CC1)Nc1cccc(C(F)(F)F)c1` gave PK Bst >57 and YjeE inh inactive.
`CCN1CCc2c(C#N)c(NCc3ccccc3)nc(NCCO)c2C1` gave PK Bst >25.6.
Screening COC(=O)N1CC(c2ccccc2)CC1=O (centres undefined) returned PK Bst >57 and YjeE inh inactive.
Screening Cc1cccc(Cn2c(=O)c3c(nc4n3CCN4Cc3ccco3)n(C)c2=O)c1 returned PK Bst >57 and YjeE inh inactive.
`CCc1nc(SCCO)c2oc3ccccc3c2n1` gave PK Bst inactive and YjeE inh inactive.
`Cc1nn(C)c(C)c1S(=O)(=O)N(CC(=O)Nc1nccs1)c1ccc(C(C)C)cc1` gave YjeE inh inactive.
Cc1ccc(C2=CC(c3ccc(N(C)C)cc3)n3nnnc3N2)cc1 (centres undefined) was read as YjeE inh inactive.
CCOc1cc2[nH]c(=O)n(CC3CCC(C(=O)NCCCOC)CC3)c(=O)c2cc1OCC (centres undefined) was read as PK Bst >57 and YjeE inh inactive.
O=C(c1cnccn1)N(c1ccccc1)C1(C(=O)NC2CCCC2)CCCCC1 was read as PK Bst >57 and YjeE inh inactive.
For Cc1ccc(N(C(C)C(=O)N2CCC(C)CC2)S(C)(=O)=O)cc1C (centres undefined) the results were PK Bst >57 and YjeE inh inactive.
For O=C(O)C1CCCCC1C(=O)NCCCc1ccccc1 (centres undefined) the results were PK Bst >57 and YjeE inh inactive.
`O=C(CCNS(=O)(=O)c1ccc2c(c1)CCC(=O)N2)NCc1ccc2c(c1)OCO2` gave PK Bst >57 and YjeE inh inactive.
Screening COc1ccc(-n2c(=O)cnc3cnc(Nc4ccccc4)nc32)cc1 returned YjeE inh inactive.
O=C(C1CCN(S(=O)(=O)c2cccc3cccnc23)CC1)N1CCc2ccccc21 was read as PK Bst 9.69* and YjeE inh inactive.
Screening COc1ccc(-n2nnc3c(=O)n(CC(=O)N4CCCc5ccccc54)cnc32)cc1 returned YjeE inh inactive.
Screening Cc1cccc(Nc2ncnc3nc[nH]c23)c1 returned YjeE inh inactive.
`Cc1ccccc1S(=O)(=O)Cc1ccc(C(=O)NCCCN2CCN(C)CC2)o1` gave PK Bst >57 and YjeE inh inactive.
Screening CC1(C)C2CCC1(CS(=O)(=O)N1CCCc3ccccc31)C(=O)C2 (centres undefined) returned PK Bst >57 and YjeE inh inactive.
For CN(C)C(=O)c1ccc(-c2cncnc2N(C)Cc2ccco2)cc1 the results were YjeE inh inactive.
`CN(C)c1ncc(C(=O)O)cn1` gave PK Bst >57 and YjeE inh inactive.
For CCc1sc(NC(=O)CN2CCOCC2)nc1-c1ccccc1 the results were PK Bst >57 and YjeE inh inactive.
CCn1c(SCC(=O)Nc2ccc(N3CCOCC3)c(Cl)c2)nnc1-c1ccc(N)cc1 was read as YjeE inh inactive.
For NC(=O)C1CCN(C(=O)c2cc(S(=O)(=O)N3CCOCC3)c(Cl)cc2Cl)CC1 the results were PK Bst >57 and YjeE inh inactive.
Nc1c(S(=O)(=O)c2ccccc2)nnn1-c1ccccc1 was read as PK Bst >57 and YjeE inh inactive.
Screening Oc1ccccc1-c1nnc(-c2ccc(C(F)(F)F)cc2)o1 returned PK Bst >57 and YjeE inh inactive.
For O=C(CSc1nnc(SCc2ccc(Cl)cc2)s1)N1CCOCC1 the results were YjeE inh inactive.
For CC(=O)c1cccc(NC(=O)C2CCCN(S(=O)(=O)c3ccccc3)C2)c1 (centres undefined) the results were PK Bst >57 and YjeE inh inactive.

Three entries picked at random from the list so far, as already listed:
For CN(C)C(=O)c1ccc(-c2cncnc2N(C)Cc2ccco2)cc1 the results were YjeE inh inactive.
Screening COc1ccc(-n2nnc3c(=O)n(CC(=O)N4CCCc5ccccc54)cnc32)cc1 returned YjeE inh inactive.
Screening COC(=O)N1CC(c2ccccc2)CC1=O (centres undefined) returned PK Bst >57 and YjeE inh inactive.

(next part)
`CCCc1cc(C(N)=O)c(NC(C)=O)s1` gave YjeE inh inactive.
`COc1ncnc2sc(-c3ccccc3)cc12` gave PK Bst inconclusive and YjeE inh inactive.
For CCOC(=O)c1cnc(SCc2nc(N)nc(Nc3ccccc3)n2)nc1N the results were PK Bst >57 and YjeE inh inactive.
For Cc1cc(C)n(-c2ccc(C(=O)NC(C)C)cc2)n1 the results were PK Bst >57 and YjeE inh inactive.
For CCc1c(C)nc2ncnn2c1N1CCC(C(=O)Nc2ccc(C)cc2)CC1 the results were PK Bst >57 and YjeE inh inactive.
CNc1nc2sc3c(c2c(=O)n1C)CC(C)(C)SC3 was read as YjeE inh inactive.
For CCN1CCCC1Cn1c(-c2ccccc2)nc2c(NCc3ccccc3)nc(C)nc21 (centres undefined) the results were YjeE inh inactive.
Screening O=C(Nc1n[nH]c(C2CCCCC2)n1)C1CCCCC1 returned PK Bst >57 and YjeE inh inactive.
For Cc1ccc(S(=O)(=O)c2nc(C(C)(C)C)oc2N2CCOCC2)cc1 the results were PK Bst >57 and YjeE inh inactive.
Screening Cc1c(NC(=O)Nc2c(Cl)cccc2Cl)c(=O)n(-c2ccccc2)n1C returned YjeE inh inactive.
Screening O=c1c(-c2ccc(F)cc2)nc2cnc(N3CCOCC3)nc2n1C[C@H]1CCCO1 returned YjeE inh inactive.
Screening CCOc1cc2[nH]c(=O)n(CCC(=O)NCCc3ccc(OC)c(OC)c3)c(=O)c2cc1OCC returned PK Bst >57 and YjeE inh inactive.
`CCN(CC)c1nc2ccccc2nc1C(C#N)C(=O)NCCCOC` (centres undefined) gave PK Bst >57 and YjeE inh inactive.
Cc1cc(=O)[nH]c(-n2nc(C)cc2C)n1 was read as PK Bst >57 and YjeE inh inactive.
Screening Cc1ccc(-n2c(C)cc(C)c(C#N)c2=O)cc1Cl returned PK Bst >57 and YjeE inh inactive.
`C=CCc1ccccc1OCC(O)CN1CCN(c2ccccc2F)CC1` (centres undefined) gave PK Bst >57 and YjeE inh inactive.
`O=C(c1cccnc1)N1C2C=CC(C2)C1(C(F)(F)F)C(F)(F)F` (centres undefined) gave PK Bst >57 and YjeE inh inactive.
`O=C(CSc1nc2ccccc2n1CC(=O)N1CCCC1)Nc1ccc2c(c1)OCO2` gave PK Bst >57 and YjeE inh inactive.
Cc1ccc(C(C)C)c(OCC(=O)N2CCOCC2)c1 was read as PK Bst >57 and YjeE inh inactive.
Screening COc1ccccc1-c1nc(NCc2cnc(C)cn2)c2ccccc2n1 returned YjeE inh inactive.
For O=C(CSc1nnc(Cn2c(=O)sc3ccccc32)n1-c1ccccc1)N1CCCCCC1 the results were YjeE inh inactive.
CC1(C)CC(=O)C2=C(C1)NC(=O)CC2c1cccc(F)c1 (centres undefined) was read as PK Bst >57 and YjeE inh inactive.
Cc1c(C(=O)O)sc(=S)n1CCOc1ccccc1 was read as YjeE inh inactive.
For COc1ccc(C(=O)N2CCC3(CC2)CN(c2cccc(-c4ccccc4)c2)C3)cc1 the results were YjeE inh inactive.
For COc1ccc(Cl)c(S(=O)(=O)N2CCCC2)c1 the results were PK Bst >57 and YjeE inh inactive.
Cc1cc(=O)n2nc(N3CCCC(C(=O)N4CCN(C)CC4)C3)sc2n1 (centres undefined) was read as PK Bst >57 and YjeE inh inactive.
For Cc1cc(C(=O)NCCCn2ccnc2)sc1-c1ccccc1 the results were PK Bst >57 and YjeE inh inactive.
For COc1cccc(CN(Cc2cccnc2)S(=O)(=O)c2ccc(-n3cnnn3)c(C)c2)c1OC the results were PK Bst >57 and YjeE inh inactive.
For COc1ccc(C(=O)Nc2cc3c(cc2C#N)OCO3)cc1S(=O)(=O)N1CCN(C)CC1 the results were YjeE inh inactive.
CC1=CC(C)(C)C(C(=O)O)C(C(=O)O)C1 (centres undefined) was read as PK Bst >57 and YjeE inh inactive.
Cc1ccc(OCCSc2nnc(-c3ccncc3)n2C)cc1 was read as PK Bst >57 and YjeE inh inactive.
Screening Cc1ccccc1-c1ccc2ncnc(N3CCN(C)CC3)c2c1 returned YjeE inh inactive.
Cc1ccc(C2C(C(=O)c3cc4ccccc4o3)=C(O)C(=O)N2CCCN(C)C)cc1 (centres undefined) was read as PK Bst >25.6.
COC(=O)c1cn(C)c2ccc(S(=O)(=O)N3CCCC3)cc2c1=O was read as PK Bst >57 and YjeE inh inactive.
`COc1cc(OC)c(C(=O)Oc2ccc3c(c2)OCO3)cc1OC` gave PK Bst >57 and YjeE inh inactive.
`COc1ccc(CCn2c(=S)[nH]c3cc(C(=O)NCc4ccco4)ccc3c2=O)cc1OC` gave PK Bst >57 and YjeE inh inactive.
O=C(Nc1cccnc1)C1CCCN1S(=O)(=O)c1ccc(Cl)c(Cl)c1 (centres undefined) was read as PK Bst 4.69* and YjeE inh inactive.
O=C(c1ccncc1)N1CCC[C@@]2(CCN(Cc3ccccc3)C2)C1 was read as YjeE inh inactive.
For O=C(COC(=O)c1cnccn1)Nc1ccc2c(c1)OCO2 the results were PK Bst >57 and YjeE inh inactive.
CCOC(=O)CCC(NC(=O)c1ccc(NCN2C(=O)CCC2=O)cc1)C(=O)OCC (centres undefined) was read as PK Bst >57 and YjeE inh inactive.
Screening Cc1ccccc1OCC(=O)NCCC(=O)O returned YjeE inh inactive.
`Cc1ccc2cc(C(c3nnnn3C3CCCC3)N(Cc3ccccc3)Cc3ccco3)c(=O)[nH]c2c1` (centres undefined) gave PK Bst >57 and YjeE inh inactive.
For O=C(O)CSc1nc(-c2ccccc2)nc2c1oc1ccccc12 the results were PK Bst inconclusive and YjeE inh inactive.
Screening CC(C#N)Sc1ncnc2sc3c(c12)CCC3 (centres undefined) returned YjeE inh inactive.
COc1ccc(CCNc2nc(N3CCCCC3)nc(N3CCCCC3)n2)cc1OC was read as PK Bst >57 and YjeE inh inactive.
Screening CCCc1nnc2n1N=C(c1ccc(OC)c(OC)c1)CS2 returned PK Bst >57 and YjeE inh inactive.
COc1cc(OC)cc(OCC(O)Cn2cnc(-c3ccccc3)c2)c1 (centres undefined) was read as PK Bst >57 and YjeE inh inactive.
For CC(=O)N1SC(N)=NC1c1ccccc1 (centres undefined) the results were PK Bst >57 and YjeE inh inactive.
O=C(CSc1nnc(-c2ccccn2)n1Cc1ccco1)c1ccccc1 was read as PK Bst >57 and YjeE inh inactive.
`Cc1cc(C)n(CC(O)CN2C(=O)NC(C)(C)C2=O)n1` (centres undefined) gave PK Bst >57 and YjeE inh inactive.
`Cc1ccc(NC(=O)c2cc(-c3ccc(C)o3)nc3ccccc23)nc1` gave YjeE inh inactive.
For O=C(CCCc1nc(-c2ccccc2)no1)NCc1cccnc1 the results were PK Bst >57 and YjeE inh inactive.
`Cc1cc(Cl)cc(C)c1OCC(=O)O` gave PK Bst >57 and YjeE inh inactive.
O=C(c1cccs1)N1CCC(c2nc3ccccc3s2)CC1 was read as PK Bst >57 and YjeE inh inactive.
For CCn1c(=O)cc(SCC(=O)NCC2CCCO2)c2ccccc21 (centres undefined) the results were PK Bst >57 and YjeE inh inactive.
`CCCn1c(C)nc2c(NCCN(C)C)nc(C)nc21` gave YjeE inh inactive.
`CCOC(=O)c1nnn(-c2nonc2-n2cccc2)c1CN1CCCCC1` gave PK Bst >57 and YjeE inh inactive.
`CC1(C)CC(=O)C(=CN2CCN(C(=O)c3ccco3)CC2)C(=O)C1` gave YjeE inh inactive.
Screening Cn1c(=O)c2cc(S(=O)(=O)NCCC(=O)N3CC=C(c4ccccc4)CC3)ccc2n(C)c1=O returned PK Bst >57 and YjeE inh inactive.
For O=C1CCc2cc(S(=O)(=O)NCCC(=O)NC3CCN(Cc4ccccc4)CC3)ccc2N1 the results were PK Bst >57 and YjeE inh inactive.
Screening Clc1ccc(CN2C3=NCCN3c3ccccc32)cc1Cl returned PK Bst >57 and YjeE inh inactive.
Screening CCCCCn1c(N2CCN(Cc3ccccc3)CC2)nc2c1c(=O)[nH]c(=O)n2C returned PK Bst >57 and YjeE inh inactive.
Screening COc1cccc(-n2nnc3c(=O)n(C/C=C/c4ccccc4)cnc32)c1 returned YjeE inh inactive.

Molecules shown so far that have a cyano group (five):
`CCN1CCc2c(C#N)c(NCc3ccccc3)nc(NCCO)c2C1` gave PK Bst >25.6.
`CCN(CC)c1nc2ccccc2nc1C(C#N)C(=O)NCCCOC` (centres undefined) gave PK Bst >57 and YjeE inh inactive.
Screening Cc1ccc(-n2c(C)cc(C)c(C#N)c2=O)cc1Cl returned PK Bst >57 and YjeE inh inactive.
For COc1ccc(C(=O)Nc2cc3c(cc2C#N)OCO3)cc1S(=O)(=O)N1CCN(C)CC1 the results were YjeE inh inactive.
Screening CC(C#N)Sc1ncnc2sc3c(c12)CCC3 (centres undefined) returned YjeE inh inactive.

High-throughput results deposited in PubChem BioAssay by National Center for Advancing Translational Sciences (NCATS).

These rows are one share of the data. The share of hits here may be higher or lower than overall.
